Vaccinia Venus: inhibitors of vaccinia virus (Venus reporter). Vaccinia virus Venus reporter expression, fluorescence. Potency, µM (highest dose often 36.5 µM), for the others: at the highest dose activity change, negative = inhibition, actives largely listed as inhibitors. 330,000 compounds, 0.46% hits. AID 720580; active means well fitted inhibition curve with a large enough effect; inconclusive means small, poorly fitted or top-dose-only effect; inactive means no such curve, though single readings can be large or run the other way; tested in A549 cells; also: nearly all actives have a fitted effect of over 30% in size; inactives centre near -10
VACV mCherry inh: inhibitors of vaccinia virus infection (mCherry reporter signal). Vaccinia virus mCherry reporter infection, fluorescence; about a quarter of the inactives have no number. Potency, µM (titrated, usually from 36.5 µM), for the others: top-dose activity change, negative = inhibition, hits mostly inhibitors. 310,000 compounds, 0.63% hits. AID 720579; active = well fitted inhibition curve with a large enough effect; inconclusive = small, poorly fitted or top-dose-only effect; inactive = no such curve, though single readings can be large or run the other way; tested in A549 cells; also: nearly all actives have a fitted effect of over 35% in size; inactives centre near -10
The depositor's hits bear a star; i = inactive; ? = inconclusive; . = not tested or not shown; & = joins results of further samples. % is scaled to controls: 0 for no effect and ±100 for the full control effect; potency is read from the fitted curve at half-maximal effect.

The first 7 compounds, to show the layout:
SMILES	Vaccinia Venus	VACV mCherry inh
O=C(N/N=C/c1ccco1)c1cc(-c2ccccc2)nc2ccccc12	-20%	?
Cc1ccc(C(=O)OCc2nc3ccsc3c(=O)[nH]2)o1	-18%	-4%
Cc1ccc2nc(-c3cc(NC(=O)/C=C/c4ccccc4)ccc3Cl)oc2c1	-9%	-11%
COc1ccc(Nc2nnc(-c3ccc(C(=O)NCCO)cc3)c3ccccc23)cc1	2%	-12%
O=C(Nc1ccc2c(c1)CCCN2C(=O)c1cccs1)c1ccccc1	-11%&-3%	-7%&1%
O=C(NC(=S)N(Cc1ccccc1)Cc1ccccc1)C1CCCCC1	-14%	-12%
Cc1ccsc1CN1CC(=O)N(c2c(C)cccc2C)C1=S	-9%	-16%

The listing, from the start:
SMILES	Vaccinia Venus	VACV mCherry inh
O=C(N/N=C/c1ccco1)c1cc(-c2ccccc2)nc2ccccc12	-20%	?
Cc1ccc(C(=O)OCc2nc3ccsc3c(=O)[nH]2)o1	-18%	-4%
Cc1ccc2nc(-c3cc(NC(=O)/C=C/c4ccccc4)ccc3Cl)oc2c1	-9%	-11%
COc1ccc(Nc2nnc(-c3ccc(C(=O)NCCO)cc3)c3ccccc23)cc1	2%	-12%
O=C(Nc1ccc2c(c1)CCCN2C(=O)c1cccs1)c1ccccc1	-11%&-3%	-7%&1%
O=C(NC(=S)N(Cc1ccccc1)Cc1ccccc1)C1CCCCC1	-14%	-12%
Cc1ccsc1CN1CC(=O)N(c2c(C)cccc2C)C1=S	-9%	-16%
COC1=C/C(=C/c2c(N)n3nc(-c4ccc(C)cc4)sc3nc2=O)C=CC1=O	1%	i
O=C(Nc1nc2cc3c(cc2s1)OCCO3)c1cccc(N2C(=O)CCC2=O)c1	-5%	i
Cc1onc(-c2ccccc2Cl)c1C(=O)Nc1ccc(S(=O)(=O)N2CCCC2)cc1	-2%	-5%
Cc1ccc2cccc(N=Cc3c(C)[nH]n(-c4ccccc4)c3=O)c2n1	-25%	-21%
CC(=O)CN1Cc2ccccc2/C1=N\C(=O)Nc1ccccc1	-14%	-22%
CN(CC(=O)Nc1ccc(OC(F)(F)F)cc1)S(=O)(=O)c1cnc[nH]1	-7%	i
COC(=O)C1(C)COP(=O)(Nc2ccc(OC)cc2)OC1 (stereo not given)	-8%	i
C#CCOCCOCCOCCNc1nc(N2CCN(C(=O)[C@H](CCCCN)n3cc(CN)nn3)CC2)nc(N2CCN(C(=O)[C@H](CCC(=O)O)n3cc([C@@H](N)CCSC)nn3)CC2)n1	-10%	?

Additional results follow.
SMILES	Vaccinia Venus	VACV mCherry inh
O=C(Nc1ccc(S(=O)(=O)N2CCCCC2)cc1)c1ccccc1F	-11%	i
O=C(CSc1cccc[n+]1[O-])Nc1cccc(Oc2ccccc2)c1	-8%	0%
COc1ccc(NC(=O)C2CCCN(S(=O)(=O)c3cccnc3)C2)cc1 (stereo not given)	-9%	-13%
CC1CC(C)CN(Cc2nc(N)nc(Nc3ccc4ccccc4c3)n2)C1 (stereo not given)	?	?
COC(=O)c1cc(OC)c(OC)cc1NC(=S)N1CCN(C)CC1	4%	-3%
COc1ccc(CCNS(=O)(=O)c2ccc(F)cc2)cc1OC	-20%	-29%
Cc1ccc(S(=O)(=O)NC(Cc2ccccc2)C(=O)O)cc1 (stereo not given)	-15%	-19%
COc1ccc(OC)c(CNC(=O)CCn2c(=O)c3cccn3c3ccc(F)cc32)c1	-9%&-2%	-3%
CCOC(=O)CCCn1nc(C)n2c(cc3sccc32)c1=O	-12%	.
Cc1cc(NC(=O)CCc2nc3cccnc3n2-c2ccccc2)ccc1Br	-17%	-19%
COc1ccccc1-n1c(Cc2cccs2)n[nH]c1=S	4%	i
COC(=O)NNC(=O)Cc1cccc2ccccc12	-2%	-9%
CC(C)(C)OC(=O)N[C@H](/C=C/c1ccccc1)C(=O)OC(C)(C)C	-14%	-12%
CC1CCCN(C(=O)C2CCN(S(=O)(=O)c3cccc4nonc34)CC2)C1 (stereo not given)	-13%	2%
CC(C)Cc1nc(NCCN2CCOCC2)c(C#N)c2c1COC(C)(C)C2	-17%	.

Additional structures follow.
SMILES	Vaccinia Venus	VACV mCherry inh
COc1ccccc1CNCc1cccc(Oc2ccccc2)c1	-29%	-26%
Cc1ccc(Cl)cc1-c1ccc(/C=N/n2cnnc2)o1	-15%	-8%
CCN(CC)C(=O)CSC1=C(C#N)C(c2ccco2)C(C(=O)OCCOC)=C(C)N1 (stereo not given)	-3%&-17%	14%&-14%
Cc1oc(-c2ccc(Cl)cc2)nc1CS(=O)CC(=O)NCc1ccc(Cl)cc1 (stereo not given)	-7%	-11%
CC(NC(=S)NC1CCCCC1)C(c1ccccc1)N1CCOCC1 (stereo not given)	-15%	-14%
Nc1nc(SCc2ccc([N+](=O)[O-])cc2)nc2nc3c(cc12)CCCC3	-27%	-12%
COC(=O)c1ccc(C2/C(=C(/O)c3ccc(OC)cc3)C(=O)C(=O)N2Cc2ccco2)cc1 (stereo not given)	1%	i
CC(=O)Nc1cccc(NC(=O)C(=O)Nc2ccc3c(c2)N(C(=O)C2CC2)CCC3)c1	-7%	-23%
Cc1ccc(C2(CC(=O)Nc3nccs3)CCOC(C(C)C)C2)cc1 (stereo not given)	-8%	-12%
O=C(O)Cn1c2ccccc2c2ccccc21	1%	-15%
CC1(C(=O)Nc2cccc(Br)c2)Cc2ccccc2C(=O)O1 (stereo not given)	-16%	-15%
CCOc1ccc(C2NC(=O)C(C#N)=C(S)N2c2ccc(OC)cc2)cc1OC (stereo not given)	-15%	-25%
COc1ccc(F)cc1C(=O)C1CCCN(C(=O)c2ocnc2C)C1 (stereo not given)	3%	-21%
CCN1CCN(c2sc(S(C)(=O)=O)nc2S(=O)(=O)c2ccc(Cl)cc2)CC1	?	?
COc1ccc(-c2nc3cc(C)ccn3c2NC(=O)c2ccc(F)cc2)cc1	4%	-4%

Next structures follow.
SMILES	Vaccinia Venus	VACV mCherry inh
COc1cc2c(cc1NC(=O)c1cc(-c3ccncc3)nc3ccc(C)cc13)oc1ccccc12	-11%	i
CC1CN(C(=O)CCC(=O)NCCc2ccccc2)c2ccccc2O1 (stereo not given)	-6%	2%
O=C(CCS(=O)(=O)c1cc2c3c(c1)CCN3C(=O)CC2)NCc1ccc(Cl)cc1	-10%	-13%
Cc1cccn2c(=S)[nH]nc12	-6%	i
O=[N+]([O-])c1ccc(Cl)c(NC2=NCCCCC2)c1	-8%	-13%
CN(C)CCCO[C@@H]1[C@H]2OC(C)(C)O[C@H]2O[C@@H]1C(O)CO (stereo not given in full)	-14%	0%
CCCCOC(=O)Nc1ccccc1C(=O)N1CCCC1	-4%	i
COc1cc(NCCCC(C)N)c2ncccc2c1 (stereo not given)	?	.
CCc1ccc2oc(C(=O)N3CCN(c4ccc(OC)cc4)CC3)cc(=O)c2c1	-26%	-28%
COc1ccc(-c2nnc(NC(=O)CS(=O)(=O)c3ccc(F)cc3)o2)cc1	-12%	i
COc1ccc(C)cc1NC(=O)C(OC(=O)CNC(=O)c1ccc(Br)cc1)c1ccccc1 (stereo not given)	-13%	-4%
O=C1CCCc2c1cc(C(=O)Nc1ccc(Br)cn1)c(=O)n2-c1ccccc1	-9%	i
COc1cc(NC(=O)c2cc3cc4ccc(OC)c(Cl)c4nc3s2)cc(OC)c1	-7%	-4%
CN(CCc1ccccn1)Cc1ccc(Cl)c(Cl)c1	3%	-13%
O=C(c1ccccc1)c1ccc(-n2ccnc2)c([N+](=O)[O-])c1	-1%	-26%

Single records (already shown):
Cc1ccc(S(=O)(=O)NC(Cc2ccccc2)C(=O)O)cc1 (stereo not given) is entered as Vaccinia Venus: -15%; VACV mCherry inh: -19%
COC(=O)c1cc(OC)c(OC)cc1NC(=S)N1CCN(C)CC1 is entered as Vaccinia Venus: 4%; VACV mCherry inh: -3%

(further entries)
SMILES	Vaccinia Venus	VACV mCherry inh
O=C(COc1ccccc1)N[C@@H]1c2ccccc2CC[C@H]1OCc1ccccc1	-25%	-26%
COc1ccc(CNC(=O)c2nc(SCc3ccccc3F)ncc2Cl)cc1	-5%	-11%
O=C(O)CCCC(=O)Nc1ccc(OCc2nc3ccccc3s2)cc1	-9%	i
CCOc1ccc(C2CC(=O)n3nc(C45CC6CC(CC(C6)C4)C5)nc3S2)cc1OC (stereo not given)	0%	-11%
Cc1ccc(C)c(-n2cc(CN3CCNC(=O)CC3)c(-c3ccccc3)n2)c1	-18%	i
O=C(CNC1CCCCC1)NN=C(c1ccccc1)c1ccccc1	-12%	-19%
COC(=O)c1[nH]c2c(c1C)C(=O)CC(c1ccc(C)cc1)C2 (stereo not given)	-15%	.
C[C@@H]1NS(=O)(=O)c2cc(Cl)ccc2O[C@@H]1c1ccccc1	-16%	i
CCCCn1c(N)c(N(CCOC)C(=O)c2ccc(Cl)c(S(=O)(=O)N3CCCC3)c2)c(=O)[nH]c1=O	-2%	-6%
Cn1nc(-c2ccc(Cl)cc2)c2cc(C(=O)N3CCN(c4ccccn4)CC3)sc21	-16%	-5%
COC(=O)/C=C/c1ccccc1S(=O)(=O)N(Cc1ccccc1)Cc1ccco1	-29%	-4%
O=C(NC(=S)Nc1ccc(C(F)(F)F)cc1)c1csnn1	-12%	i
CC1CCN(C(NC(=O)c2ccco2)C(=O)c2ccccc2)CC1 (stereo not given)	-12%	-10%
CCOc1ccc(S(=O)(=O)/N=C(/Nc2ccc(OC)cc2)c2ccccc2)cc1	-13%	-25%
COC(=O)C1=CN(c2ccc(OC)cc2OC)C(N)=C(C#N)C1c1cccc([N+](=O)[O-])c1 (stereo not given)	?	?

Carrying on.
SMILES	Vaccinia Venus	VACV mCherry inh
O=C(Nc1ccc(Cl)cc1F)c1cccc2ccccc12	-8%	-22%
O=C1Oc2ccccc2C(=O)/C1=C\N1CCN(c2ccccc2)CC1	-23%	?
O=[N+]([O-])c1ccc2c(c1)N([O-])C1(CCCCC1)[N+]2=O	-4%	-12%
O=C(CSc1nc(-c2ccc(F)cc2)nc2c1Cc1ccccc1O2)Nc1cccc(C(=O)O)c1	-15%&-4%	-8%
Cc1noc(C)c1COc1ccc(C(=O)Nc2ccccn2)cc1	-4%	-14%
CCOC(=O)c1oc2cc(O)ccc2c(=O)c1-c1ccccc1OC	-2%	-12%
COc1cccc(CNC(=O)N2CCC(CN3CCC(C)CC3)CC2)c1	-6%	-3%
COC(=O)C1=C(c2cccc(C#N)c2)C[C@@H]2CC[C@H]1N2C(=O)NCC1CC1	-16%	-8%
CN(C)c1ccc(CNC(=O)C2CCN(Cc3cc4ccccc4n3Cc3ccccc3)CC2)cc1	-22%	-16%
CCc1ccccc1NC(=O)C1CCC(CNS(=O)(=O)c2ccc3c(c2)CC(C)N3C(C)=O)CC1 (stereo not given)	-9%	-9%
COc1cccc(CN2CCC2(C)C(=O)NCc2cccc(C(F)(F)F)c2)c1OC (stereo not given)	-6%	?
CN(Cc1ccccc1)c1ncnc2[nH]ncc12	-14%	i
CCCOc1ccc(C(=O)O/N=C(\CC)c2ccc(C)cc2)cc1	-11%	-14%

Screening results (PubChem BioAssay)

Not a hit list (roughly 0.82% active in at least one column).
